Source: PubChem
Mtb H37Rv: M. tuberculosis H37Rv growth inhibitors, H37Rv strain (AID 1626) | inhibition, % at 10 µM; hits with a dose series show IC50 in µM | M. tuberculosis H37Rv growth inhibition; higher % means a stronger effect | 220,000 compounds, 0.95% hits;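 active = confirmed in a dose series; inconclusive = inhibition above 80% but not taken into the dose series; inactive = below 80% or under 30% at every dose of the series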;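 note: bacteria incubated seven days before Alamar blue readout; 0% = bacteria only wells and 100% = bacteria with antibiotic wells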
Arbovirus anti: arbovirus infection inhibition. arbovirus infection cell-based antiviral screen. inhibition, % at 10 µM. 200,000 compounds, 0.37% hits. AID 1251;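 active = inhibition from about 30%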;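 note: bluetongue infection of BSR cells; cell survival read as ATP light after 72 h; 0% = infected wells without compound and 100% = uninfected wells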
Mtb bLac sens: beta-lactam sensitization of Mtb H37Rv | M. tuberculosis H37Rv growth with meropenem, percent inhibition; hits of this screen are not shown here | inhibition, % at 25 µM | 330,000 compounds, 0.27% hits;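 active = about 74% or more and at least 40 points above the plate without the antibiotic, then above 30% in a dose series; inconclusive = first-round hits that could not be retested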;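 note: growth measured after seven days incubation then overnight dye step; 0% = bacteria only wells and 100% = bacteria with antibiotic; twin plates without the antibiotic show which effects depend on it; some results filed as inactive read as strong as hits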
RecA intein inh: inhibitors of M. tuberculosis RecA intein splicing | cell-free RecA intein splicing, fluorescence | inhibition, %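 (about 9 µM by stock and volumes)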 | 290,000 compounds, 0.75% hits | AID 2221; in the data active = inhibition above about 30%; inconclusive = no clear call, values can overlap the other calls;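 note: 0% = vehicle wells and 100% = reference inhibitor control wells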
Target sequence (P9WHJ3 whole entry, looked up): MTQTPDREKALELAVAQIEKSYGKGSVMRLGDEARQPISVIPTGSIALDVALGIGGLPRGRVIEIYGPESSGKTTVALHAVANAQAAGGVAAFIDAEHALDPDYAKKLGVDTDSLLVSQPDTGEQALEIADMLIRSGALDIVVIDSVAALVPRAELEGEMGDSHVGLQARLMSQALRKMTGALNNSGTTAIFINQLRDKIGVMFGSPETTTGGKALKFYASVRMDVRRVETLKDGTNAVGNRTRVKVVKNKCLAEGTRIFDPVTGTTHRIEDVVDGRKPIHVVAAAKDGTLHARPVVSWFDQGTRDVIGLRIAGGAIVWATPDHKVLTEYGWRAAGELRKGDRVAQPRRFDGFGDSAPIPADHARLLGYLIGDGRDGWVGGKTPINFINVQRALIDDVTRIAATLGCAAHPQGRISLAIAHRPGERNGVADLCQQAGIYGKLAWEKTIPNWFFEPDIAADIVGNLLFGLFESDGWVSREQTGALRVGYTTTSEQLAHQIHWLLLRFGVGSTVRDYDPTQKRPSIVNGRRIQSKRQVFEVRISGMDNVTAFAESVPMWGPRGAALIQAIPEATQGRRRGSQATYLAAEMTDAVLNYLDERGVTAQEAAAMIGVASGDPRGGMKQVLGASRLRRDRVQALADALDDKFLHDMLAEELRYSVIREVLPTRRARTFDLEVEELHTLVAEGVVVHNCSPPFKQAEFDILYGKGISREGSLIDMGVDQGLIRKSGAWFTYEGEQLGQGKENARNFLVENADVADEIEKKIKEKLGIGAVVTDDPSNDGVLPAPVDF
YopH inh: YopH (Yersinia) phosphatase inhibition. fluorescence Ex485/Em525. inhibition, %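 (about 10 µM by stock and volumes)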. 140,000 compounds, 0.16% hits;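 active = inhibition of 50% or more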;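 note: controls were vehicle for no effect and minimum signal wells for full effect; inactives centre near -20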
Arbovirus anti repeat: further read-out of Arbovirus anti, marked with its call; inhibition, %; measured here: 10K subset replicate screen; many hits read low in the repeat;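 first of two repeat runs on a subset; 0% = infected and 100% = uninfected wells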
* = called active by the depositor.

`CCn1nc(C(=O)OCC(=O)NCCN2C(=O)CSC2=O)c2ccccc2c1=O` gave Mtb H37Rv 6%, Arbovirus anti 11, Mtb bLac sens 2, RecA intein inh 1.4 and YopH inh -23.
CCOc1ccc(C(=O)Nc2nc3ccccc3[nH]2)cc1OCC was read as Mtb H37Rv inconclusive, Arbovirus anti 17, Mtb bLac sens 99 and RecA intein inh -3.6.
Screening CC(=O)c1ccc(OCC(=O)N(C2CCCCC2)C2CCS(=O)(=O)C2)cc1 (configuration not stated) returned Mtb bLac sens 1 and RecA intein inh 8.6.
Screening COCCNC(=O)CNS(=O)(=O)c1ccc2nc(C)sc2c1 returned Mtb H37Rv -11%, Arbovirus anti 15, Mtb bLac sens -2, RecA intein inh 0.0 and YopH inh -41.
Screening Cc1ccc(/C=N/n2c(-c3ccccn3)n[nH]c2=S)o1 returned Mtb H37Rv -6%, Mtb bLac sens 2 and RecA intein inh 0.0.
`CCc1c(C)nc2ncnn2c1NCCc1ccc(OC)cc1` gave Mtb H37Rv 8%, Arbovirus anti 2, Mtb bLac sens -1, RecA intein inh 0.5 and YopH inh -40.
`O=C(c1cccs1)N1CCN(CCc2ccccc2)CC1` gave Mtb H37Rv -6%, Arbovirus anti -1, Mtb bLac sens -18, RecA intein inh 1.2 and YopH inh -22.
For Cc1cc(=O)n2[nH]c(COc3ccccc3)nc2n1 the results were Mtb H37Rv 2%, Arbovirus anti 1, Mtb bLac sens 0, RecA intein inh 7.8 and YopH inh 20.
Cc1ccc(C(=O)NCCc2nnc3ccc(SCC(=O)Nc4ccccc4F)nn23)cc1 was read as Mtb bLac sens -1 and RecA intein inh 0.6.
`COc1cc(/C=N/NC(=O)c2ccc3c(c2)OCCO3)cc(Br)c1O` gave Mtb bLac sens 21 and RecA intein inh -0.6.
`Cc1cc2nccc(-c3ccc(F)cc3)n2n1` gave Mtb bLac sens -2 and RecA intein inh -1.1.
`Cc1cnc(NC(=O)C2COc3ccccc3O2)s1` (configuration not stated) gave Mtb H37Rv 1%, Arbovirus anti 9, Mtb bLac sens 4, RecA intein inh 0.1 and YopH inh 4.
Screening Cc1c(NC(=O)CC(C)C)c(=O)n(-c2ccccc2)n1C returned Mtb H37Rv 2%, Arbovirus anti 7, Mtb bLac sens -8, RecA intein inh -6.3 and YopH inh -16.
`Cc1nn(C)c(Cl)c1CN1CCN(C2CCCCC2)C(CCO)C1` (configuration not stated) gave Mtb H37Rv -1%, Arbovirus anti 1, Mtb bLac sens -1 and RecA intein inh -0.1.
For COc1ccccc1N(CC(O)CN1C(=O)NC(C)(C)C1=O)S(=O)(=O)c1ccc(C)cc1 (configuration not stated) the results were Mtb H37Rv -4%, Arbovirus anti 10, Mtb bLac sens -8, RecA intein inh 2.4, YopH inh 1 and Arbovirus anti repeat 5.
Screening O=C(NNc1c2ccccc2nc2ccccc12)c1cc2ccccc2cc1O returned Mtb H37Rv -2%, Arbovirus anti 18, Mtb bLac sens 12, RecA intein inh -0.4 and YopH inh -20.
COC(=O)Nc1ccc(=O)n(Cc2c(Cl)cccc2Cl)c1 was read as Mtb H37Rv 0%, Arbovirus anti -4, Mtb bLac sens -5, RecA intein inh 1.5 and YopH inh -33.
`Cn1c(N)c(C(=O)COC(=O)CCC(=O)c2ccc(F)cc2)c(=O)n(C)c1=O` gave Mtb H37Rv 4%, Arbovirus anti 15, Mtb bLac sens -7 and RecA intein inh -3.4.
`O=C(CSc1nnc(CNC(=O)c2ccccc2F)o1)NCc1ccccc1` gave Mtb H37Rv 5%, Arbovirus anti 1, Mtb bLac sens 1 and RecA intein inh -0.2.
`Cc1cc(=O)n2c(n1)NC(Nc1cccc(C)c1C)=NC2c1ccccc1` (configuration not stated) gave Mtb H37Rv -2% and Mtb bLac sens -9.
`Cn1c(=O)c(C(=O)NCC2CCCO2)c(O)c2ccccc21` (configuration not stated) gave Mtb H37Rv 0%, Arbovirus anti 12, Mtb bLac sens 1 and RecA intein inh 5.7.
Screening CCC(C)NC(=O)C1CCCN(c2nc(C)cc(OC)n2)C1 (configuration not stated) returned Mtb H37Rv -1%, Arbovirus anti 6, Mtb bLac sens -21, RecA intein inh 3.0 and YopH inh -5.
Screening COC(=O)c1ccc(CN2CCN(Cc3ccc(F)cc3)C(CCO)C2)cc1 (configuration not stated) returned Mtb H37Rv -6%, Arbovirus anti -3, Mtb bLac sens -10 and RecA intein inh -0.2.
For COc1ccc(/C=C2\C(=O)N(Cc3ccc(F)cc3)CC(=O)N2Cc2ccccc2)cc1 the results were Mtb H37Rv 3%, Arbovirus anti -24, Mtb bLac sens 13, RecA intein inh 14 and YopH inh -6.
C=CCC(=O)N(CC)CC1CCCN(CCc2cccc(F)c2)C1 (configuration not stated) was read as Mtb bLac sens 7 and RecA intein inh -6.3.
`COc1cc(OC)cc(C(=O)OCC(=O)Nc2cccc(C(C)=O)c2)c1` gave Mtb bLac sens -1 and RecA intein inh -3.1.
For CCOc1ccc(/C=N/NC(=O)c2c(C)n(C)c3ccc(OC)cc23)cc1 the results were Mtb H37Rv 4%, Arbovirus anti -12, Mtb bLac sens 2, RecA intein inh 0.2 and YopH inh -24.
Screening O=C(NC(=S)Nc1ccccc1N1CCCC1)c1ccco1 returned Mtb H37Rv 7%, Mtb bLac sens 96 and RecA intein inh -0.2.
`Clc1cc2c(c(CSc3nc4ccccc4n4cccc34)c1)OCOC2` gave Mtb H37Rv -2%, Mtb bLac sens -8 and RecA intein inh -1.7.
CCCCc1nnc(NC(=O)C(=O)OCC)s1 was read as Mtb H37Rv 0%, Arbovirus anti 0, Mtb bLac sens -2 and RecA intein inh -0.2.
Screening COC(=O)C1=C(c2ccccc2)C[C@@H]2CC[C@H]1N2C(=O)N1CCCC1 returned Mtb H37Rv 4%, Mtb bLac sens -10 and RecA intein inh -1.9.
CCOC(=O)C1=C(N)OC2=C(C(=O)CCC2)C1c1sccc1C (configuration not stated) was read as Mtb H37Rv -7%, Arbovirus anti 4, Mtb bLac sens -3, RecA intein inh -0.1 and YopH inh -10.
Cc1cccc(C)c1NC(=O)COC(=O)c1ccc2c(c1)OCO2 was read as Mtb H37Rv 9%, Arbovirus anti -3, Mtb bLac sens 2 and RecA intein inh -3.9.
CCOC(=O)c1[nH]cnc1C(=O)Nc1cccc(OC)c1 was read as Mtb H37Rv 4%, Mtb bLac sens -2 and RecA intein inh -0.7.
NC(=O)c1nc(C2CCCCC2)nc2c1[nH]c(=O)n2-c1ccc(F)cc1 was read as Arbovirus anti 3, Mtb bLac sens -4, RecA intein inh -1.8, YopH inh -18 and Arbovirus anti repeat -1.
COC(=O)c1cc(NC(=O)Cc2coc3cc(OC)ccc23)cc(C(=O)OC)c1 was read as Mtb H37Rv 5%, Arbovirus anti -3, Mtb bLac sens 31, RecA intein inh -0.2 and YopH inh -32.
For O=C(CCc1nnc(-c2ccc3c(c2)OCO3)o1)N1CCC(c2ccc(F)cc2)C1 (configuration not stated) the results were Mtb H37Rv -4%, Arbovirus anti -34, Mtb bLac sens -7 and RecA intein inh 1.1.
For COc1nn(-c2ccccc2)c(=O)c(Cl)c1Cl the results were Mtb bLac sens 99 and RecA intein inh -2.4.
COc1ccc(-n2c(=O)c3c4c(sc3n3c(=S)[nH]nc23)COC(C(C)C)C4)cc1 (configuration not stated) was read as Mtb H37Rv -7%, Mtb bLac sens 6 and RecA intein inh 2.4.
O=C1CCc2cc(NS(=O)(=O)c3ccccc3)cc3c2N1CCC3 was read as Mtb bLac sens -11 and RecA intein inh 0.7.

Reprinted at random: 7 compounds from above
CCCCc1nnc(NC(=O)C(=O)OCC)s1 was read as Mtb H37Rv 0%, Arbovirus anti 0, Mtb bLac sens -2 and RecA intein inh -0.2.
COC(=O)c1cc(NC(=O)Cc2coc3cc(OC)ccc23)cc(C(=O)OC)c1 was read as Mtb H37Rv 5%, Arbovirus anti -3, Mtb bLac sens 31, RecA intein inh -0.2 and YopH inh -32.
`Cn1c(=O)c(C(=O)NCC2CCCO2)c(O)c2ccccc21` (configuration not stated) gave Mtb H37Rv 0%, Arbovirus anti 12, Mtb bLac sens 1 and RecA intein inh 5.7.
O=C1CCc2cc(NS(=O)(=O)c3ccccc3)cc3c2N1CCC3 was read as Mtb bLac sens -11 and RecA intein inh 0.7.
`COc1cc(OC)cc(C(=O)OCC(=O)Nc2cccc(C(C)=O)c2)c1` gave Mtb bLac sens -1 and RecA intein inh -3.1.
For O=C(CCc1nnc(-c2ccc3c(c2)OCO3)o1)N1CCC(c2ccc(F)cc2)C1 (configuration not stated) the results were Mtb H37Rv -4%, Arbovirus anti -34, Mtb bLac sens -7 and RecA intein inh 1.1.
For CCOc1ccc(/C=N/NC(=O)c2c(C)n(C)c3ccc(OC)cc23)cc1 the results were Mtb H37Rv 4%, Arbovirus anti -12, Mtb bLac sens 2, RecA intein inh 0.2 and YopH inh -24.

Later entries:
`COC(=O)CN(c1cccc(OC)c1)S(C)(=O)=O` gave Mtb H37Rv 3%, Arbovirus anti 2, Mtb bLac sens 17, RecA intein inh 1.6 and YopH inh -40.
Screening COc1ccc(N2CC(C(=O)Nc3ccc(S(=O)(=O)N4CCCCC4)cc3)CC2=O)cc1 (configuration not stated) returned Mtb bLac sens -13 and RecA intein inh -5.4.
`O=C(NC(=S)NCC1CCCO1)c1ccc(Cl)cc1` (configuration not stated) gave Mtb H37Rv 2%, Arbovirus anti -3, Mtb bLac sens 6, RecA intein inh -4.4 and YopH inh 7.
Screening CN(C)S(=O)(=O)Oc1cccc(C(=O)Nc2ccc([N+](=O)[O-])cc2)c1 returned Mtb H37Rv -14%, Arbovirus anti -6, Mtb bLac sens -5 and RecA intein inh -0.3.
Cc1ccc(C(=O)Nn2cnc3ccccc3c2=O)cc1C was read as Mtb bLac sens -5 and RecA intein inh 4.3.
`Cc1cc(C)c2nncn2n1` gave Mtb bLac sens -4 and RecA intein inh -3.1.
Screening CC1CCCCN1CCCn1c(=S)[nH]c2ccccc2c1=O (configuration not stated) returned Mtb H37Rv 5%, Arbovirus anti 2, Mtb bLac sens -6, RecA intein inh -4.4 and YopH inh -5.
`COc1ccccc1OCCCCn1c(C(C)O)nc2ccccc21` (configuration not stated) gave Mtb bLac sens -4 and RecA intein inh -1.5.
For O=C(c1ccccc1)c1ccccn1 the results were Mtb H37Rv 0%, Arbovirus anti 14, Mtb bLac sens 6 and RecA intein inh 1.0.
For O=C(CCCCCn1c(SCC(=O)c2ccccc2)nc2ccccc2c1=O)NCc1ccco1 the results were Mtb H37Rv -2%, Arbovirus anti -21, Mtb bLac sens -5, RecA intein inh -0.3 and YopH inh -4.
Screening Cc1noc(NS(=O)(=O)c2ccc(NC(=O)c3ccc(OC(C)C)cc3)cc2)c1C returned Mtb H37Rv 1%, Arbovirus anti 14, Mtb bLac sens 37 and RecA intein inh 1.1.
Screening O=C(COC(=O)c1ccccc1NC(=O)c1ccco1)NC1CCS(=O)(=O)C1 (configuration not stated) returned Mtb H37Rv 56%, Arbovirus anti 0, Mtb bLac sens 86 and RecA intein inh 1.4.
Screening COc1ccc(C(=O)C(CCC(CNC(C)(C)C)C(=O)c2ccc(OC)cc2)CNC(C)(C)C)cc1 (configuration not stated) returned Mtb H37Rv 3%, Arbovirus anti -33, Mtb bLac sens -5, RecA intein inh -6.0 and YopH inh -18.
Screening Cc1ccc(NC(=O)COC(=O)c2cccnc2Cl)cc1S(=O)(=O)N1CCCCC1 returned Mtb H37Rv 5%, Arbovirus anti 2, Mtb bLac sens -7 and RecA intein inh -0.4.
Screening CCn1c(SCC(=O)NC2CCCCC2)nnc1-c1ccco1 returned Mtb bLac sens -7 and RecA intein inh 0.4.
For O=C(C1CCN(S(=O)(=O)c2cccc3cccnc23)CC1)N1CCCC1 the results were Mtb H37Rv -19%, Arbovirus anti 5, Mtb bLac sens -2, RecA intein inh 1.7, YopH inh -33 and Arbovirus anti repeat 2.
`Cc1cccc(C(=O)N2CCC(n3nnc4cc(F)ccc43)CC2)c1` gave Mtb H37Rv 2%, Arbovirus anti 1, Mtb bLac sens -5 and YopH inh -1.
`O=C(NCc1cccs1)c1cc(-c2ccccc2)nn1CC1CC(c2cccc([N+](=O)[O-])c2)=NO1` (configuration not stated) gave Mtb H37Rv 12%, Mtb bLac sens 30 and RecA intein inh 2.4.
Screening Cc1nc2ccccc2n1/C(=N\S(=O)(=O)c1ccccc1)c1ccccc1 returned Mtb H37Rv -4%, Arbovirus anti -4, Mtb bLac sens -4, RecA intein inh 0.6 and YopH inh -38.
`O=[N+]([O-])c1ccc(/C=N/N2CCN(c3ccncc3S(=O)(=O)N3CCCCC3)CC2)cc1` gave Mtb H37Rv 2%, Arbovirus anti -1, Mtb bLac sens -3, RecA intein inh -0.6 and YopH inh -43.

Only part of the results is shown (hit frequency here may not be typical).
